# Screening data deposited in PubChem BioAssay by National Center for Advancing Translational Sciences (NCATS).
# NS1 inh – inhibitors of influenza NS1 protein function; S. cerevisiae slowed by influenza A NS1, growth recovery by OD600; Potency, µM (highest dose often 46.1 µM), for inactives: at the top dose activity, positive = more growth; 270,000 compounds, 0.4% hits; note: actives are rising curves; nearly all actives have a fitted effect of over 50% in size
#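 S. cerevisiae expressing influenza A NS1, grown in glucose, washed, then diluted 1:100 into pH 6.0 -URA galactose medium with 23 nl compound. Growth recovery read as OD600; NS1-free strain serves as control.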
# 2A StopGo – FMDV 2A StopGo reporter, luciferase signal; human cells with a luciferase reporter of 2A StopGo recoding; control for the full effect not named in the record; Potency, µM (highest dose often 57.9 µM), for inactives: at the highest dose signal change, negative = less light; 410,000 compounds, 1.2% hits; active = well fitted falling curve with a large enough effect; inconclusive = small, poorly fitted or top-dose-only effect; inactive = no such curve, though single readings can be large or run the other way; tested in HEK293T cells; note: % is set by controls: 0 for no effect and ±100 for the full control effect; nearly all actives have a fitted effect of over 45% in size; luciferase light after 4 h
# SARS PLP yeast – blocks SARS-CoV papain-like protease in a yeast assay | S. cerevisiae expressing SARS-CoV PLpro, growth rescue; control for the full effect not named in the record | Potency, µM (top dose mostly 32.9 µM), for inactives: at the highest dose activity, positive = growth rescue | 330,000 compounds, 0.19% hits; note: 0% is about no effect; nearly all actives have a fitted effect of over 55% in size; growth read by luminescence after 48 h
# Marburg entry inh – inhibitors of Marburg virus binding or cell entry | Marburg virus pseudotyped entry inhibition, cell reporter; control for the full effect not named in the record; about a third of the inactives were read at about 46 µM | Potency, µM (titrated, usually from 37.8 µM), inactives show at the highest dose activity change, negative = inhibition, most hits filed as inhibitors | 300,000 compounds, 1.8% hits; active = well fitted inhibition curve with a large enough effect; inconclusive = small, poorly fitted or top-dose-only effect, or effect the other way; inactive = flat fitted curve, though single readings scatter; tested in HEK293 cells; about a fifth of its hits are not listed in these tables; note: % is set by controls: 0 for no effect and ±100 for the full control effect; luciferase read-out
# LASV entry inh – inhibitors of Lassa virus binding or cell entry; Lassa virus pseudotype entry inhibition, cell reporter; control for the full effect not named in the record; 300,000 compounds, 1.2% hits; AID 540256; Potency, µM (series often up to 37.9 µM), inactives show at the top dose activity change, negative = inhibition, usual class: inhibitors; active means well fitted inhibition curve with a large enough effect; inconclusive means small, poorly fitted or top-dose-only effect, or effect the other way; inactive means flat fitted curve, though single readings scatter; tested in HEK293 cells; note: % is set by controls: 0 for no effect and ±100 for the full control effect; nearly all actives have a fitted effect of over 50% in size; luciferase read-out
# Cruzain noTriton – inhibitors of Trypanosoma cruzi cruzain without detergent; P25779; 200,000 compounds, 2.3% hits; purified cruzain, Z-FR-AMC fluorescence, no detergent; Potency, µM, for the others: max response, negative = inhibition, most hits filed as inhibitors; active = well fitted curve in the direction sought with a large enough effect; inconclusive = small, poorly fitted or top-dose-only effect, or another doubt; inactive = no such curve, though single readings can be large; an effect the other way counts as inactive or inconclusive;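 note: plate controls were enzyme without inhibitor for no effect and buffer without enzyme for full effect; nearly all actives have a fitted effect of over 40% in size; top concentration of the series not given in the record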
# Target sequence (P25779 123-467 limits assumed): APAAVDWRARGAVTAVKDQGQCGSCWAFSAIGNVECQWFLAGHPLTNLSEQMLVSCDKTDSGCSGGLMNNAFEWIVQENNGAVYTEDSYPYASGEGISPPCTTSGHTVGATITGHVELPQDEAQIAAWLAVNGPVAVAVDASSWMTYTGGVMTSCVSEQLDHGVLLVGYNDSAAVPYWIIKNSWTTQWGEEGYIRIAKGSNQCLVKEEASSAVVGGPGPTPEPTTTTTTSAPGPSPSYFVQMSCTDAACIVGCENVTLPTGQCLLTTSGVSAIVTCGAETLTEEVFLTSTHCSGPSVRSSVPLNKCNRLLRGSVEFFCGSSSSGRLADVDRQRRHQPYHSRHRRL
#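 Purified cruzain at 1.5 nM, pre-incubated 15 min with compound at room temperature in 100 mM sodium acetate pH 5.5, 5 mM DTT, 0.00005% Triton X-100. Reaction started with 2 uM Z-FR-AMC; AMC fluorescence increase over 60 s gives rate.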
# RE007 growth inh – less growth of the S. pombe RE007 Vpr strain | S. pombe RE007 Vpr strain, BacTiter-Glo ATP luminescence, 24 h; control for the full effect not named in the record | Potency, µM (titrated, usually from 92.2 µM), for inactives: top-dose activity change, negative = less growth | 360,000 compounds, 0.21% hits; active = well fitted falling curve with a large enough effect; inconclusive = small, poorly fitted or top-dose-only effect; inactive = no such curve, though single readings can be large or run the other way;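 note: % is set by controls: 0 for no effect and ±100 for the full control effect; nearly all actives have a fitted effect of over 50% in size; the assay follows cell death caused by Vpr and the record does not say whether a fall means rescue or toxicity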
#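 Fission yeast strain RE007, carrying one chromosomally integrated HIV-1 vpr copy, was seeded at OD 0.01 in PMG+AL medium with 23 nL pinned compound. After 24 h at 30 °C and 99% humidity, viability was read by BacTiter-Glo luminescence.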
# Cruzain inh Det – inhibitors of Trypanosoma cruzi cruzain with detergent | AID 1478 | Potency, µM, for the others: max response, negative = inhibition, usual class: inhibitors | purified cruzain, Z-FR-AMC fluorescence, 0.01% Triton | 200,000 compounds, 0.43% hits; active = well fitted curve in the direction sought with a large enough effect; inconclusive = small, poorly fitted or top-dose-only effect, or another doubt; inactive = no such curve, though single readings can be large; an effect the other way counts as inactive or inconclusive;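 note: plate controls were neutral wells for no effect and buffer without enzyme for full effect; nearly all actives have a fitted effect of over 40% in size; top concentration of the series not given in the record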
#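 Cruzain (1.5 nM) preincubated 15 min at RT with compound in 100 mM sodium acetate pH 5.5, 5 mM DTT, 0.01% Triton X-100. Reaction started with 2 uM Z-FR-AMC; AMC fluorescence (ex 360/em 450 nm) change over 60 s gave rate.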
# Starred values were filed as active, the others as inactive; ? = inconclusive; nt = not tested or not shown; & = joins results of further samples; [ ] = another dose, or the depositor's remark. Unless noted, calls come from the whole dose curve; as a rule, active means well fitted rising curve with a large enough effect; inconclusive means small, poorly fitted or top-dose-only effect; inactive means no such curve, though single readings can be large or run the other way. Potency is the fitted concentration of half-maximal effect. Compounds were not picked by outcome. About 4.5% of those tested had a hit in this group.
SMILES,NS1 inh,2A StopGo,SARS PLP yeast,Marburg entry inh,LASV entry inh,Cruzain noTriton,RE007 growth inh,Cruzain inh Det
O=C(Nc1nncs1)c1cc2c(s1)CCC2,nt,-6%,-12%,?,-10%[46.1 µM],nt,-13%,nt
O=C(Nc1ncnc2c1ncn2C1OC(COC(=O)c2ccccc2)C(F)C1O)c1ccccc1 (stereo not drawn),-11%,-8%,10%,-16%,0%,24%,-16%,-6.7%
CCCn1c2ccccc2c2cnn(CC(=O)NCCCOC)c(=O)c21,0%,3%,-2%,4%,?,nt,-7%,nt
COC(=O)/C=C1\SC(=NC(=O)c2ccc(-c3ccccc3)cc2)NC1=O,nt,?,7%,9%[46.1 µM],-11%[46.1 µM],nt,18%,nt
COc1cc(OC)c(C(=O)NNC(=O)c2ccc(NS(=O)(=O)c3cccs3)cc2)cc1OC,nt,4%,nt,4%,-4%,nt,2%,nt
CCOc1ccc(C(=O)Nc2ccc3nc(SCCOc4ccccc4)sc3c2)cc1,nt,?,nt,8%[46.1 µM],-8%[46.1 µM],-6%,nt,-1.5%
CCc1cc(C(=O)c2ccc(OC)cc2)c(NC(=O)CN2CCCCC2)s1,3%,-8%,1%,nt,nt,nt,-7%,nt
O=C1/C(=C/c2ccccc2)CSc2sccc21,-26%,46%[activator],-2%,?,-3%,-10%,?,-4.6%
CO/N=C/NC(=O)NOCc1ncc(C(F)(F)F)cc1Cl,5%,0%,8%,?,15%,-5%,5%,-4.1%
Cc1ccc(-c2cc(C(=O)NCCc3ccccc3)c3ccccc3n2)cc1C,nt,-4%,nt,nt,4%[46.1 µM],15%,nt,0.8%
Clc1ccccc1Cc1noc(CN2CCSCC2)n1,1%,12%,1%,16%[46.1 µM],9%,nt,15%,nt
O=C(/C=C/c1ccc(Cl)cc1)NCCN1CCOCC1,9%,12%,1%,1%,-5%,-3%,17%,-2.8%
O=C1CN(S(=O)(=O)c2ccc(F)cc2)c2ccccc2N1,4%,1%,2%,1%[46.1 µM],4%[46.1 µM],nt,-3%,nt
CCc1ccccc1NC(=O)Cn1c(=O)n(Cc2ccco2)c(=O)c2sc3ccccc3c21,nt,-11%,nt,-3%[46.1 µM],19%[46.1 µM],-5%,nt,-4.0%
COc1cccc(CN(C(=O)c2oc3cc(C)ccc3c2C)C2CCS(=O)(=O)C2)c1 (stereo not drawn),nt,-16%,nt,?,-24%[46.1 µM],?,nt,-7.2%
Clc1ccc(CN(Cc2ccccc2)C(c2cccs2)c2nnnn2C2CCCC2)cc1 (stereo not drawn),-17%,-25%,nt,3%[46.1 µM],-23%,-21%,-10%,-0.7%
CCN(Cc1ccncc1)Cc1c(O)ccc2ccccc12,nt,-1%,-1%,-6%[46.1 µM],9%,nt,-4%,nt
Cc1c(Cl)cccc1NC(=O)CCN1CCN(CCO)CC1,0%,-14%,13%,nt,nt,nt,5%,nt
O=[N+]([O-])c1ccc(-c2ccc(/C=N/c3c(-c4ccco4)nc4ccccn34)o2)cc1,-53%,nt,1%,?,-21%,-21%,-19%,-3.7%
COc1ccc(N=Nc2nc3cc(Br)c(Br)cc3n2C)c(OC)c1,?,31%[activator],nt,-2%,-7%,0%,15%,-13%
O=C1c2ccccc2C(=O)N1CCCCSc1nnc(-c2ccc(OC(F)F)cc2)o1,-12%,?,1%,-16%,10%,6%,21%,-1.7%
COc1cccc(CSc2nnc(-c3ccncc3)n2C)c1,19%,-7%,1%,15%[46.1 µM],4%[46.1 µM],nt,?,nt
CCOc1ccc(OCCC(=O)N(CC)CC(=O)Nc2ccccc2OC)cc1,nt,-5%,nt,-13%[46.1 µM],18%,nt,-10%,nt
O=C(Nc1ccc([N+](=O)[O-])cn1)C1CC2CCC1C2 (stereo not drawn),-17%,7%,7%,7%,5%,-2%,6%,-0.3%
COc1ccc(NC(=O)C2C3C=CC4(O3)C2C(=O)N(CCN2CCCCC2C)C4C(=O)NC2CCCC(C)C2C)cc1 (stereo not drawn),-1%,-5%,0%,?,-7%[46.1 µM],nt,-16%,nt
Nc1ccc2oc(-c3ccccc3Cl)nc2c1,?,-9%,14µM*,?,?,0%,?,-3.2%
COc1ccc(-n2c(C)cc(C(=O)COc3ccc(-n4cnnn4)cc3)c2C)cc1,-1%,-19%,1%,nt,5%,-9%,0%,1.5%
CCc1ccc(CNC(=O)Cn2nc(C)c3nn(-c4ccc(Cl)cc4)c(C)c3c2=O)cc1,nt,-19%,nt,nt,?,-8%,nt,2.5%
Cn1c(=O)[nH]c(=O)c2c1nc(NCc1ccco1)n2Cc1ccccc1Cl,-3%,-3%,1%,nt,nt,nt,17%,nt
CCOc1ccc2nc(N3CCCC(C(=O)Nc4ccc(OC)cc4)C3)sc2c1 (stereo not drawn),nt,-7%,nt,?,nt,-5%,nt,0.9%
O=C1CS/C(=N/N=C/c2ccccc2)N1Cc1ccco1,-8%,-1%,-2%,10%,-18%,nt,-22%,nt
Cc1ccc(S(=O)(=O)NNC(=S)Nc2ccccc2)cc1,-13%,10%,-4%,?,2%,19%,26%,-3.6%
CCNC(=S)N(CCN(C)C)Cc1cc2cc3c(cc2[nH]c1=O)OCO3,20%,-11%,2%,nt,nt,nt,-1%,nt
O=C(NCC(c1ccco1)N1CCc2ccccc2C1)c1cccc(Br)c1 (stereo not drawn),nt,?,1%,4%,-18%,nt,21%,nt
Cc1ccc(NC(=O)CN2C(=O)NC3(CCCc4ccccc43)C2=O)cc1S(=O)(=O)N1CCOCC1 (stereo not drawn),-11%,-25%,0%,-23%[46.1 µM],-1%,nt,-1%,nt
CCCCNC(=S)NNC(=O)c1ccco1,6%,69%[activator],12%,10%,11%,8%,11%,1.5%
Cc1cc(C(=O)CN2C(=O)NC(Cc3c[nH]c4ccccc34)C2=O)c(C)n1C (stereo not drawn),11%,-12%,-5%,0%,-23%,-9%,-1%,1.6%
COc1ccc(N2CCN(CCCNC(=O)CCCn3c(=O)[nH]c4ccsc4c3=O)CC2)cc1,-2%,-8%,2%,-2%,8%,-18%,7%,2.2%
COc1ccc(NC(=O)CC(C)CC(=O)NCc2ccccc2)c(OC)c1 (stereo not drawn),12%,-14%,17%,nt,nt,nt,11%,nt
CCCCc1nnc(NC(=O)COC)s1,1%,31%[activator],-1%,11%[46.1 µM],nt,nt,2%,nt
O=C(CN1CCN(Cc2ccccc2F)C1=O)NCCc1ccc(Cl)cc1,-10%,-8%,1%,nt,nt,2%,0%,1.7%
CCCn1c(=O)c2sccc2n2c(CCCC(=O)NC3CCN(Cc4ccccc4)CC3)nnc12,7%,-9%,-9%,nt,nt,nt,-7%,nt
Cc1ccc2nc(CSc3nnc(-c4ccco4)o3)cc(=O)n2c1,-3%,-9%,1%,-9%&-9%,6%,-11%,5%,-5.6%
CNC(=O)[C@@]1(C)C=C[C@@H](Cc2ccccc2)N1C(=O)OC,-5%,26%,-6%,21%,19%,7%&-4%,2%,1.9%&-2.3%
CCOC(=O)c1c(C)[nH]c(C)c1C(=O)COc1ccc(NC(=O)c2ccco2)cc1,-15%,-28%,0%,-2%&-2%,-19%,-8%,-6%,-1.5%
CCSc1nnc(C)c(=O)n1COC(=O)c1ccc(S(=O)(=O)N2CCCC2)cc1,-8%,-17%,-5%,-1%,-1%,2%,8%,2.8%
O=C(Nc1sc2c(c1C(=O)O)CCC2)c1ccc(F)cc1,-4%,0%,-11%,-17%[46.1 µM],?,nt,-16%,nt
O=C(COC(=O)c1c(F)cccc1Cl)NC1CCCCC1,nt,22%,-1%,?,?,nt,0%,nt
O=C(NC1CC1)C1CCN(C2CCN(C(=O)c3ccc(C(F)(F)F)cc3)CC2)CC1,-1%,4%,26%,nt,nt,nt,-7%,nt
COc1ccc(/C=N/Nc2nc(N)cc(Cl)n2)cc1OC,4%,15%,-2%,?,1%,nt,2%,nt

# Structural class: the compounds so far with a nitro group on carbon
SMILES,NS1 inh,2A StopGo,SARS PLP yeast,Marburg entry inh,LASV entry inh,Cruzain noTriton,RE007 growth inh,Cruzain inh Det
O=[N+]([O-])c1ccc(-c2ccc(/C=N/c3c(-c4ccco4)nc4ccccn34)o2)cc1,-53%,nt,1%,?,-21%,-21%,-19%,-3.7%
O=C(Nc1ccc([N+](=O)[O-])cn1)C1CC2CCC1C2 (stereo not drawn),-17%,7%,7%,7%,5%,-2%,6%,-0.3%

# Additional entries.
SMILES,NS1 inh,2A StopGo,SARS PLP yeast,Marburg entry inh,LASV entry inh,Cruzain noTriton,RE007 growth inh,Cruzain inh Det
CCC1CCCCN1CCCNC(=O)c1cc2c(Cl)nc3ccccc3c2s1 (stereo not drawn),nt,?,1%,?,-38%[46.1 µM],0%,-5%,2.2%
N#CCOc1ccccc1/C=N/n1nnnc1N,-1%,11%,2%,?,0%,nt,3%,nt
CCOc1ccc(N2C(=O)CCC2=O)cc1,-10%,-13%,5%,22%,3%,2%,5%,-6.5%
Cc1ccc(S(=O)(=O)N2CCN(c3ncnc4scc(-c5ccc(F)cc5)c34)CC2)cc1,nt,?,-2%,?,-23%,nt,1%,nt
CCC(C)C(NC(=O)c1ccccc1NC(=O)c1ccccc1)C(=O)N1CCOCC1 (stereo not drawn),-2%,-14%,6%,?,-4%,8%,?,0.9%
Cc1ccc(C)c(NC(=O)CCS(=O)(=O)c2cccc3nsnc23)c1,nt,6%,nt,-14%[46.1 µM],5%[46.1 µM],-6%,nt,3.1%
